Ab BasE inh: BasE siderophore biosynthesis inhibition; AID 485350; 0.1% of 84,000 active; inhibition, % (test concentration not listed); purified BasE, fluorescence polarization binding displacement;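 active = both replicates above 25% with normal brightness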;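 note: 0% = negative plate control signal and 100% = positive plate control signal; stock transfer was 100 nL into about 30 µL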
LANA-nucl inh: LANA-nucleosome interaction inhibition; 0.3% of 51,000 active; FITC-LANA1-23 / chicken nucleosome fluorescence polarization; stronger effect = lower value; z-score (no concentration beside the values);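 active = both repeat wells score below -2 in polarization z-score versus plate sample wells, excluding overly bright wells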;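 note: 100 nL library stock added to about 30 µL; numbers are from one replicate; some results filed as inactive read as strong as hits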
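System – purified chicken nucleosomes with FITC-labelled LANA N-terminal peptide (1-23) · Amount – 240 nM purified chicken nucleosomes (480 nM peptide binding sites), final · Also added – 50 nM FITC-LANA1-23 probe · Medium – TEN-BT buffer, pH 7.5 · Incubation – compound with peptide–nucleosome mix 10–45 min at room temperature · Detection – fluorescence polarization, ex 480 nm, em 535 nm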
The depositor's hits bear a star; x = not tested or not shown; & = joins results of further samples. Some of the compounds tested. The share of hits here may be higher or lower than overall.

SMILES | Ab BasE inh | LANA-nucl inh
C[C@]12CCC3C(CC[C@]4(O)C[C@@H](O)CC[C@]34C=O)[C@@]1(O)CCC2C1=CC(=O)OC1 (stereo partly drawn) | -0.1 | -0.27
NCCc1cccc(Cl)c1 | -12 | x
OC(c1ccccc1)(c1ccccc1)C1CCNCC1 | -0.5 | 0.24
COc1cccc(C=C2C(=O)NC(=O)NC2=O)c1 | 0.4 | x
N#Cc1c(N)[n+]([O-])c2ccccc2[n+]1[O-] | 1.4 | -8.3*
Oc1ccc2c3c1OC1[C@@H](O)CC[C@@]4(O)[C@@H](C2)N(CC2CCC2)CC[C@]314 (stereo partly drawn) | 1.8 | -0.29&0.19
C[C@@H](N)[C@H](O)c1ccccc1 | -4.2 | 1.4
COc1cc2c(cc1OC)[C@@]13CCN4CC5=CCO[C@H]6CC(=O)N2[C@H]1[C@H]6[C@H]5C[C@H]43 | x | 1.1
Nc1ccc(Sc2ccc(N)cc2)cc1 | 6.8 | x
CCN1CCN(Cc2cccc(Br)c2)CC1 | 2.1 | -0.51
C[C@]12CC[C@H](OC3OC(O)C(O)C(O)C3O)C=C1CCC1C2CC[C@]2(C)[C@@H](c3ccc(=O)oc3)CC[C@]12O (stereo partly drawn) | x | -2
O=C(OCc1nc2c(oc3ccccc32)c(=O)[nH]1)C(O)(c1ccccc1)c1ccccc1 | 0.2 | x
Cc1ccc(-c2nc(Cn3cc(C=C4C(=O)N(C)C(=O)N(C)C4=O)c4ccccc43)no2)cc1 | 0.3 | x
Cc1ccc(C(=O)CN(C)C2CCCCC2)cc1 | -0.9 | x
CC1=C2[C@@H]3OC(=O)[C@H](C)C3CC[C@@]2(C)C=CC1=O (stereo partly drawn) | 3.1 | -0.081
N#CCCn1cc(C(=O)n2nnc3ccccc32)c(-c2ccccc2)n1 | -0.8 | 0.29
C#C[C@]1(O)CCC2C3CCC4=CC(=O)CC[C@]4(C)C3CC[C@@]21C (stereo partly drawn) | -1.5 | -0.68
Oc1ccc(CN2CCN(c3cccc(C(F)(F)F)c3)CC2)cc1 | 2.4 | 0.12
O=C1CN=C(c2ccccc2Cl)c2cc([N+](=O)[O-])ccc2N1 | x | -0.43
COC(=O)C1=C(N)Oc2cc(C)[nH]c(=O)c2C12C(=O)N(CC(C)C)c1ccccc12 (stereo not drawn) | 0.4 | -0.37
O=C(/C=C/c1ccccc1)N1CCN(Cc2cccc(F)c2)CC1 | -2.3 | -0.42
C[C@@H]1CC[C@H]2[C@@H](C)C(=O)O[C@@H]3OC4(C)CC[C@@H]1[C@]32OO4 | 1.4&-1.4 | 0.0065&0.07
CCOC(=O)C(O)(c1ccc(NC(=O)NC)cc1)C(F)(F)F (stereo not drawn) | 1.1 | -0.38
CCSc1nnc(C(N)Cc2ccccc2)o1 (stereo not drawn) | 2.1 | 0.5
Cc1ccc(P2(=S)N=C3c4ccccc4CN3c3cc(N(C)C)ccc32)o1 (stereo not drawn) | 1.3 | x
O=C1/C(=C/c2cccnc2)N2CCC1CC2 | 0.6 | -0.056
Cc1nc2cc(Cl)ccc2c(=O)n1-c1ncn[nH]1 | x | 0.25
CCN1CCC2(CC1)N=C(c1ccccc1)C(=S)N2 | -0.8 | 1.5
Cc1ccc(/C=C2\CC3C4CC=C5CC(O)CCC5(C)C4CCC3(C)C2O)o1 (stereo not drawn) | -1.1 | x
COc1ccc(OC)c(NC(=S)NCCc2cnc[nH]2)c1 | 1.2 | -0.088
O=C(c1ccc(Cl)cc1)N1CCOCC1 | 0.5 | -0.45
Cc1ccccc1N1C(=O)NC(=O)C(CCc2ccncc2)(Cc2ccc3c(c2)OCO3)C1=O (stereo not drawn) | 0.3 | -0.89
CC(=O)Nc1ccc(OP2(=O)COc3ccccc3OC2)cc1 | 1.0 | -0.59
CCCCCCCCCCCCCC(=O)O[C@@H]1[C@@H](C)[C@@]2(O)[C@@H](C=C(CO)C[C@]3(O)C(=O)C(C)=C[C@@H]23)[C@@H]2C(C)(C)[C@]12OC(C)=O | 2.3 | 0.47
CN(Cc1ccccc1)C(=O)CN1CCCC1=O | -0.5 | x
CCN1CCN(Cc2nnnn2C(C)(C)C)CC1 | -3.6 | 2.1
CN1/C(=C2\C=NN(C)P2(=S)N2CCCC2)C(C)(C)c2ccccc21 (stereo not drawn) | -0.2 | x
CC12CCC(=O)N1C1CCCCC1N2 (stereo not drawn) | 0.4 | -0.21
Cc1ccc(-n2c(C)cc(P(=S)(N3CCOCC3)N3CCOCC3)c2C)c(C)c1 | 3.5 | x
CC(C)NCC(O)c1ccc(N)c(C#N)c1 (stereo not drawn) | -1.7 | 0.041&0.35
CO[C@@H]1C[C@@H](C[C@H]2CC[C@H](C)[C@H]([C@@H](C)C(=O)O)O2)O[C@]2(O[C@](C)([C@H]3CC[C@@](C)([C@@H]4O[C@@H]([C@H]5O[C@@](O)(CO)[C@H](C)C[C@@H]5C)C[C@@H]4C)O3)C[C@H]2C)[C@@H]1C | -0.6 | -0.63
CC12CCC(O)CC1CCC1C2CCC2(C)C(C(=O)O)CCC12 (stereo not drawn) | 0.0 | x
CC(C)OC(=O)C1C(=O)NC2(C)CC1c1ccccc1O2 (stereo not drawn) | 5.1 | 0.51
O=C1CC(=O)N(c2ccccc2)C(=O)N1c1ccccc1 | -0.3 | -1.5
C[N+]12CN3CN(CN(C3)C1)C2 | -1.4 | 1.3
CN1CCN(c2ccccc2NC(=O)C2CCC2)CC1 | 1.9 | x
C#CCN(C)C(C)Cc1ccccc1 (stereo not drawn) | x | 0.23&-0.86
COc1cc(C=C(C#N)C#N)cc2c1OCO2 | 3.0 | -0.27
NCCc1c[nH]c2ccc(O)cc12 | 0.0&1.6 | -0.23&-1
NC(N)=N/N=C/c1ccc2c(c1)OCO2 | -0.5 | 0.27

Continuation:
SMILES | Ab BasE inh | LANA-nucl inh
Brc1ccc2[nH]cc(CNCCN3CCOCC3)c2c1 | -2.8 | x
CC1=C2C[C@H]3[C@@H](CC=C4C[C@@H](O)CC[C@@]43C)[C@@H]2CC[C@]12O[C@@H]1C[C@H](C)CN[C@H]1[C@H]2C | 0.1 | 0.097
CCCCn1c(N)c(C(=O)NCCC)c2nc3ccccc3nc21 | -1.5 | -1.1
O=C1C2CCN(CC2)C1Cc1ccc(OCCOc2ccccc2)cc1 (stereo not drawn) | -0.3 | -0.76
CN(C)C(=O)Oc1cc(OC(=O)N(C)C)cc(C(O)CNC(C)(C)C)c1 (stereo not drawn) | -0.2 | -0.78&0.23
N#CC1=C(SCc2ccccc2)SCNC1=O | 1.5 | -0.97
c1ccc2[nH]c(C3CCCNC3)nc2c1 (stereo not drawn) | -1.3 | 0.35
Cc1ccc2c(c1)C1CN(C)CCC1N2C(=O)c1ccco1 (stereo not drawn) | 1.5 | x
CC1CCCCC1NC(=O)c1cc2cccnc2n(Cc2ccccc2)c1=O (stereo not drawn) | 0.8 | 0.3
COC(=O)C1=CCCN(C)C1 | -4.0&2.8 | 0.01&1.5&-0.37

Shown with tabs: entries from further up
molecule	Ab BasE inh	LANA-nucl inh
CO[C@@H]1C[C@@H](C[C@H]2CC[C@H](C)[C@H]([C@@H](C)C(=O)O)O2)O[C@]2(O[C@](C)([C@H]3CC[C@@](C)([C@@H]4O[C@@H]([C@H]5O[C@@](O)(CO)[C@H](C)C[C@@H]5C)C[C@@H]4C)O3)C[C@H]2C)[C@@H]1C	-0.6	-0.63
CC12CCC(O)CC1CCC1C2CCC2(C)C(C(=O)O)CCC12 (stereo not drawn)	0.0	x
CC(C)OC(=O)C1C(=O)NC2(C)CC1c1ccccc1O2 (stereo not drawn)	5.1	0.51
O=C1CC(=O)N(c2ccccc2)C(=O)N1c1ccccc1	-0.3	-1.5
C[N+]12CN3CN(CN(C3)C1)C2	-1.4	1.3
CN1CCN(c2ccccc2NC(=O)C2CCC2)CC1	1.9	x
C#CCN(C)C(C)Cc1ccccc1 (stereo not drawn)	x	0.23&-0.86
COc1cc(C=C(C#N)C#N)cc2c1OCO2	3.0	-0.27
NCCc1c[nH]c2ccc(O)cc12	0.0&1.6	-0.23&-1
NC(N)=N/N=C/c1ccc2c(c1)OCO2	-0.5	0.27
Brc1ccc2[nH]cc(CNCCN3CCOCC3)c2c1	-2.8	x
CC1=C2C[C@H]3[C@@H](CC=C4C[C@@H](O)CC[C@@]43C)[C@@H]2CC[C@]12O[C@@H]1C[C@H](C)CN[C@H]1[C@H]2C	0.1	0.097
CCCCn1c(N)c(C(=O)NCCC)c2nc3ccccc3nc21	-1.5	-1.1
O=C1C2CCN(CC2)C1Cc1ccc(OCCOc2ccccc2)cc1 (stereo not drawn)	-0.3	-0.76
CN(C)C(=O)Oc1cc(OC(=O)N(C)C)cc(C(O)CNC(C)(C)C)c1 (stereo not drawn)	-0.2	-0.78&0.23
N#CC1=C(SCc2ccccc2)SCNC1=O	1.5	-0.97
c1ccc2[nH]c(C3CCCNC3)nc2c1 (stereo not drawn)	-1.3	0.35
Cc1ccc2c(c1)C1CN(C)CCC1N2C(=O)c1ccco1 (stereo not drawn)	1.5	x
CC1CCCCC1NC(=O)c1cc2cccnc2n(Cc2ccccc2)c1=O (stereo not drawn)	0.8	0.3
COC(=O)C1=CCCN(C)C1	-4.0&2.8	0.01&1.5&-0.37

The list continues.
SMILES | Ab BasE inh | LANA-nucl inh
C=C1[C@@H](C)[C@H]2[C@H](Cc3ccccc3)NC(=O)[C@]23OC(=O)/C=C/[C@H](O)CCC[C@@H](C)C/C=C/[C@H]3[C@@H]1O | -2.0 | -0.43
CO[C@@H]1C=C2CCN(C)[C@@H]2C2c3cc4c(cc3C(=O)OC21)OCO4 (stereo partly drawn) | -0.5 | 0.18
O=c1cccc2n1C[C@H]1CNCC2C1 | 4.2 | 0.72
COP(=S)(OC)Oc1cc(Cl)c(Cl)cc1Cl | x | -0.35
Cc1cc(OC(=O)N(C)C)cc(C)c1Cl | -2.4 | 0.61
CSc1nc(-c2ccc(Cl)cc2)nn1C(=O)N(C)C | -2.9 | x
NCCn1ccc2ccccc21 | -1.2 | 0.57
CN1C(=O)CC(=O)NC1=O | 1.1 | x
O=C(c1ccc(F)cc1)N1CCC2(CC1)OCCO2 | -1.0 | 0.33
CC(=O)OC1(c2ccccc2)CCN(C)C2CCCCC21 (stereo not drawn) | 3.1 | -0.38
CC(=O)NC1C(OC2OC(CC(O)C3OC(n4ccc(=O)[nH]c4=O)C(O)C3O)C(O)C(O)C2NC(=O)/C=C\CC(C)C)OC(CO)C(O)C1O (stereo not drawn) | x | -0.015
CCC1C(c2ccccc2)NC(c2ccccc2)CC1(O)c1ccc(F)cc1 (stereo not drawn) | -0.6 | x
C=CCN1C(=O)NC(=O)/C(=C\c2ccccc2)C1=O | 0.9 | -0.74
CCCCC/C=C\C[C@@H](/C=C/C=C\C/C=C\CCCC(=O)O)OO | 4.7 | 0.34
COc1ccc(C)cc1CCNCc1ccncc1 | -4.5 | x
CCC12CN3CN(C1)CC(CC)(C3)C2O (stereo not drawn) | -0.4 | -1.5
C/C(=N\NC(N)=S)c1ccc(Cl)cc1 | 2.5 | x
CN1C[C@@H](NS(=O)(=O)N(C)C)C[C@@H]2c3cccc4c3c(cn4C)C[C@H]21 | x | 0.39
O=C(O)CSC(c1ccccc1)c1ccccc1 | 3.0 | x
Clc1ccc(N/N=C2/CN3CCC2CC3)c(Cl)c1 | -2.9 | -0.11
O=C1NC(=O)C(CCc2ccncc2)(c2ccccc2)C(=O)N1 | 8.8 | -0.1
CC(C)=CC1C(C(=O)OCc2cccc(Oc3ccccc3)c2)C1(C)C (stereo not drawn) | 1.1 | 0.39
O=c1c2ccccc2nc(CN2CCOCC2)n1-c1cccc(C(F)(F)F)c1 | -0.6 | -0.085
CCOC(=O)C1=CC(=C2C(=O)NC(=O)NC2=O)c2ccccc2O1 | 2.8 | x
O=C(C1CCN(S(=O)(=O)N2CCCC2)CC1)N1CCC2(CC1)OCCO2 | 0.8 | -0.53
Cc1cccc(CN2CCN(C(=O)COc3ccccc3)CC2)c1 | -0.6 | -0.15
CN(C)C(Cc1ccc(Cl)cc1)C(=O)c1ccccc1 (stereo not drawn) | 1.6 | x
Cc1cc(N2CCNCC2)nc2ccccc12 | -2.0 | -0.27
C/C(=C(/C#N)P(=S)(N1CCOCC1)N1CCOCC1)N1CCCC1 | 0.5 | x
COc1cc(NC2=NCCS2)c(Cl)cc1Cl | x | -0.36
COc1ccc2c3c([nH]c2c1)C(C)=NCC3 | -0.9&-4.4 | -0.39&0.85
CCOC(=O)C1=C(C)OC(N)=C(C#N)C12C(=O)N1c3c(cccc32)C(C)CC1(C)C (stereo not drawn) | -1.0 | -1.2
COc1ccc(C(=O)OC2C[C@H]3CC[C@@H](C2)N3C)cc1OC (stereo partly drawn) | -1.1 | -0.57
CC1(C)COC(Nc2cccc(Cl)c2)=N1 | -2.4 | x
CCN(CC)C(=O)c1ccc(NC(=O)c2ccccc2)cc1 | 2.6 | 1
CCOc1cc(C=C2C(=O)NC(=O)NC2=O)cc(Cl)c1O | 0.8 | -2.4*
N#Cc1cc(F)c(N2CCCC2)cc1Cl | 2.8 | -1.4

Screening results: PubChem BioAssay, ICCB-Longwood Screening Facility, Harvard Medical School
